Vif A3G = inhibitors of Vif binding to APOBEC3G peptide, primary screen, biochemical, TR-FRET, GST-Vif 1-94, biotin-A3G peptide, dose response retest (AID 1117319) | TR-FRET GST-Vif / biotin-A3G peptide binding; higher % means a stronger effect; test concentration not given here; strong numbers were not always called active | inhibition, %, or IC50 in µM where a hit was titrated | 0.57% of 260,000 active;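 active means above the screen mean plus three standard deviations and confirmed in dose response; inconclusive means results disagree or hit not tested in dose response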;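 further: Vif residues 1-94 fused to GST binding biotinylated APOBEC3G peptide 110-148; 0% = full assay without inhibitor and 100% = GST in place of GST-Vif; retest series ran down from 100 µM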
HNF4A DNA FP = change in binding of human HNF4 alpha to DNA. P41235. HNF4a-FITC DNA binding, fluorescence polarization, 1 h. activity change, % at 10 µM. 0.3% of 360,000 active; in the data active means activity change above about 30%, passing the limit was not always enough;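 further: controls were the assay level and a saturating level of protein; the project sought stronger binding though the title names inhibitors; some compounds called inactive have numbers as strong as hits; positive values seem to mean higher polarization but the record does not say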
RanGTP-Imp inh = disruptors of Ran-importin-beta complex formation – biochemical, FRET, CFP-Ran, YFP-importin-beta, homogeneous, primary screen | cell-free CFP-Ran/YFP-importin-beta FRET ratio | inhibition, % (concentration not given with the values) | 1.1% of 300,000 active | AID 2216;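 active means most replicates above 15%; inconclusive means exactly half above 15%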;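 further: 0% = DMSO wells and 100% = Ran loaded with GDP instead of GTP; wells of about 40 µL received 100 nL stock; the first replicate is given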
E coli growth = inhibitors of Escherichia coli growth; OD600 absorbance (concentration not given with the values); OD600, 23 h; hits give low values; 0.21% of 330,000 active;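 active means OD600 absorbance below the run mean of sample wells minus 3.6 SD, in any replicate, cut at about 0.56 in these data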;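 further: stock transfer was 300 nL into about 60 µL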
AF4-AF9 inh = MLL-AF4/AF9 protein interaction inhibition; P42568; AlphaScreen, biotin-AF4 peptide binding to FLAG-AF9; inhibition, % at 10 µM; 0.47% of 350,000 active; AID 651704;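 active means every replicate reaching a set inhibition limit, whatever the replicate mean, cut at about 25% in these data; inconclusive means mean inhibition reaches that limit but some replicates miss it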;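 further: 0% = plate neutral control median and 100% = total signal loss; the record names both 10 and 1 µM as test concentration; the first replicate is given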
Target sequence (P42568 whole entry, looked up): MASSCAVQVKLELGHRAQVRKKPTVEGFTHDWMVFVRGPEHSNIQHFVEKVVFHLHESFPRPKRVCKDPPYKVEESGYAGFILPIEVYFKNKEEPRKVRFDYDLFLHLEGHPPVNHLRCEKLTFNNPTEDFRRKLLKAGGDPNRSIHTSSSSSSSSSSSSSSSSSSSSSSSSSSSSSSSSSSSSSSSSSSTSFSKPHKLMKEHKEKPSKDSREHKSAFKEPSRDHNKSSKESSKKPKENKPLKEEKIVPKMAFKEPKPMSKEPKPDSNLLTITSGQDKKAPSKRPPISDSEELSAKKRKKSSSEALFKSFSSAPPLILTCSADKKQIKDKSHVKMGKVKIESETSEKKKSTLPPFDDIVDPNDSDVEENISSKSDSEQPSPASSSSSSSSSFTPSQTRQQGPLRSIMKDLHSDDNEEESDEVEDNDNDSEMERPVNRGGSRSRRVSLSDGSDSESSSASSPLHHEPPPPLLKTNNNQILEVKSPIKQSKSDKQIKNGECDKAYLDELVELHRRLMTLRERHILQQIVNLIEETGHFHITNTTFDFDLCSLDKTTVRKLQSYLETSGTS
FGF22 binding = FGF22 (human) thermal shift binding; calls only at 9.99 µM; 1.5% of 340,000 active; recombinant FGF22 thermal shift, SYPRO orange fluorescence; percent of sucrose octasulfate shift, DMSO zero;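 active means melting point raised past a set limit in the mean and every replicate; inconclusive means no clear call; three in four hits are not shown here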
Target sequence (Q9HCT0 whole entry, looked up): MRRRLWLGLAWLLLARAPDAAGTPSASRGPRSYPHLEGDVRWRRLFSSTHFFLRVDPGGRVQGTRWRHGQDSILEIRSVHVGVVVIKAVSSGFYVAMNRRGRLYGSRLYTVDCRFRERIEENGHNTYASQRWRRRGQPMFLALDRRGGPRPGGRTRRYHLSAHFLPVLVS
UCH37 inh = blocks the human deubiquitinase UCH37. 0.33% of 330,000 active. Q9Y5K5. purified proteasome/UCH37, Ub-AMC cleavage fluorescence. inhibition, % (no concentration beside the values). AID 588478;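 active means mean of two replicates above 20%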;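 further: 0% = compound-free wells with enzyme and 100% = wells lacking proteasome; stock transfer was 100 nL into about 20 µL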
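Material: Human UCH37 enzyme supplied as purified proteasome complex | Schedule: 30 min compound-proteasome preincubation then 25 min substrate reaction, room temperature | Detection: AMC fluorescence from Ub-AMC cleavage, excitation 355 nm, emission 460 nm | Benchmarks: Wells without proteasome as full block, compound-free enzyme plus substrate as uninhibited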
* = called active by the depositor; i = inactive; ? = inconclusive; / = no result given; + = active, no number; & = joins results of further samples. These rows are one share of the data; rates above refer to the full screens.

Vif A3G	HNF4A DNA FP	RanGTP-Imp inh	E coli growth	SMILES	AF4-AF9 inh	FGF22 binding	UCH37 inh
-1%	2.4	-1.2	0.66	CCOCCCn1c(=S)[nH]c2cc(C(=O)NCCOC)ccc2c1=O	/	/	8.7
0%	1.5	-2.3	0.73	Cc1ccccc1OCC(O)Cn1c(NCCN(C)C)nc2c1c(=O)n(C)c(=O)n2C (stereo not given)	-9.4	i	6.8
2%	1.2	-0.1	0.69	CN(CC(=O)Nc1cccc(F)c1)C(=O)c1ccccc1Cc1ccccc1	-0.9	i	1.8
/	-3.0	/	0.68	C=CCSCC1Nc2cc(Cl)c(S(N)(=O)=O)cc2S(=O)(=O)N1 (stereo not given)	-10	i	2.8
-6%	3.6	0.0	0.65	CCC1(CC)NC(=O)N(CC(=O)OC(C)C(=O)Nc2cc([N+](=O)[O-])ccc2OC)C1=O (stereo not given)	0.6	i	3.8
-5%	-0.2	?	0.75	CCc1c(C(=O)Nc2cc(C)ccc2OC)[nH]c(C)c1C(C)=O	/	/	-15
-3%	6.3	-1.6	0.64	Cc1cc(C)cc(OCCNC(=O)C2CCN(S(=O)(=O)c3ccccc3)CC2)c1	-0.8	i	2.0
/	-2.4	0.0	0.69	CCn1cc(C(=O)NCCCOC)c(=O)c2cc(S(=O)(=O)N3CCCC3)ccc21	-3.1	i	5.8
/	3.2	-3.3	/	CCC(C)[C@H]1COCCS(=O)(=O)N1Cc1ccc(Br)cc1 (stereo not given in full)	0.9	i	0.4
-12%	3.3	11	0.67	CCN1C(=O)/C(=C/c2ccc(OC)c(OC)c2)N=C1SCC(=O)NCc1ccco1	7.1	i	-70
-1%	1.0	4.3	0.72	CCOc1cc(NC(=S)NCCCN2CCOCC2)c(OCC)cc1NC(=O)C(C)C	/	/	1.9
3%	-2.6	-3.1	0.69	CCCCC(=O)Nc1cccc2c1C(=O)N(c1ccccc1)C2=O	/	/	-0.1
/	/	-1.8	0.71	CC(C)=CCc1cc2c(=O)c3c(O)c4c(cc3oc2c(O)c1O)OC(C)C4(C)C (stereo not given)	/	/	5.4
8%	0.8	2.4	0.68	O=C(COc1cccc2ccccc12)NNC(=O)CSCCO	-5.1	i	1.7
-4%	4.3	-0.8	0.66	O=[N+]([O-])c1ccc2[nH]nc(-c3ccccc3)c2c1	/	/	-0.1
-2%	-2.0	0.4	0.7	CSc1ccc(CNc2ccccn2)cc1	/	/	-1.5
/	-0.2	/	0.67	CCc1ccc(C(=O)N2CCN(c3ccc(NC(=O)c4ccco4)cc3)CC2)cc1	-1.9	i	5.3
-3%	2.4	-3.1	/	C/C(=N\O)C(C)(C)Nc1ccc(Cl)cc1	-2.1	i	/
-7%	-0.5	5.1	0.67	COC(=O)c1c(N2C(=O)Nc3ccccc3N2O)sc2c1CCCC2	-48	i	7.4
-6%	0.2	-2.4	0.73	CC(=O)c1ccccc1OC(=O)CCN1C(=O)C2C3C=CC(C4CC34)C2C1=O (stereo not given)	-5.2	i	1.9
7%	1.2	3.1	0.69	COC(=O)c1ccc(Oc2ccc3nncn3n2)cc1	/	/	3.9
-11%	2.6	8.9	0.63	NS(=O)(=O)c1ccc(CCNC(=O)Cn2c(=O)c3cccn3c3cccnc32)cc1	0.4	i	-4.1
5%	0.2	-0.8	0.7	Cc1ccc(C)n1C(CC(=O)O)c1ccc(C#N)cc1 (stereo not given)	-3.6	i	3.2
-2%	-1.8	2.8	0.7	O=C(/C=C/c1ccccc1)NC(=S)Nc1ccc2c3c(cccc13)CC2	-2.7	i	7.9
-6%	0.3	-2.3	0.66	CCSc1cc(Cl)nc(N)n1	1.9	i	-0.6
14%	-0.4	5.8	0.66	CCOc1ccc(NC(=O)CSc2nc3ccccc3c(=O)n2CCCC(=O)NCC2CCCO2)cc1 (stereo not given)	-2.7	i	1.6
18%	-5.0	5.1	0.65	COc1ccnc(Oc2ccc(F)cc2)c1C(=O)N/C=N/OCc1ccc(F)cc1	/	/	-0.7
-3%	1.5	-2.5	0.73	Cc1cc(C(=O)OCC(=O)c2ccc3c(c2)NC(=O)CO3)c2ccccc2n1	/	/	-13
28%	/	-0.9	0.69	CC(C)c1nnc(NC(=O)CCC(=O)NC2CCCCC2)s1	/	/	5.6
-2%	1.5	-0.4	0.67	CCOC(=O)CSc1nnc(CNc2cccc(Cl)c2)n1-c1ccccc1	/	/	0.8

For convenience, four of the compounds above:
Vif A3G	HNF4A DNA FP	RanGTP-Imp inh	E coli growth	SMILES	AF4-AF9 inh	FGF22 binding	UCH37 inh
18%	-5.0	5.1	0.65	COc1ccnc(Oc2ccc(F)cc2)c1C(=O)N/C=N/OCc1ccc(F)cc1	/	/	-0.7
-3%	1.5	-2.5	0.73	Cc1cc(C(=O)OCC(=O)c2ccc3c(c2)NC(=O)CO3)c2ccccc2n1	/	/	-13
28%	/	-0.9	0.69	CC(C)c1nnc(NC(=O)CCC(=O)NC2CCCCC2)s1	/	/	5.6
-2%	1.5	-0.4	0.67	CCOC(=O)CSc1nnc(CNc2cccc(Cl)c2)n1-c1ccccc1	/	/	0.8

More records
Vif A3G	HNF4A DNA FP	RanGTP-Imp inh	E coli growth	SMILES	AF4-AF9 inh	FGF22 binding	UCH37 inh
-6%	1.9	-2.5	0.75	O=[N+]([O-])c1ccc(NC(=S)N2CCN(c3ccc(F)cc3)CC2)cc1	/	/	-6.0
1%	3.8	1.0	0.66	CC(C)Cc1nc(N2CCN(C(=O)c3ccco3)CC2)c(C#N)c2c1CCCC2	3.5	i	-37
-7%	-3.5	?	0.68	Cc1ccc(NC2=CC(=O)CC(c3ccccc3)C2)cc1 (stereo not given)	/	/	0.1
/	-1.0	-0.2	0.64	O=C(NCCSCc1ccccc1)c1ccccc1	3.9	i	1.5
-4%	3.3	4.5	0.68	Cc1ccc(S(=O)(=O)CCC(O)c2ccc(Cl)cc2)cc1 (stereo not given)	-2.2	i	-0.2
-2%	9.7	4.4	0.69	Cc1ccc(Cn2nnc3c(=O)n(CC(=O)NCc4ccc5c(c4)OCO5)cnc32)cc1	-27	i	-2.6
-14%	-1.4	?	/	CC(C)(C)OC(=O)CNC(=O)c1[nH]cnc1C(=O)N[C@@H](CCCCNC(=O)OC(C)(C)C)C(=O)OC(C)(C)C	1.3	i	-0.4
/	4.2	/	/	OC(c1ccccc1)(c1nc(-c2ccc(Cl)cc2)cs1)C(F)(F)F (stereo not given)	-5.8	i	/
0%	2.5	-0.3	0.67	CC(=O)c1cccc(NC(=O)c2ccc(OC3CSC3)cc2)c1	-3.1	i	4.5
/	-3.0	/	/	CCCCCCCCNS(=O)(=O)CCNC1CCCCC1	-1.4	i	/
15%	-2.1	?	0.72	O=C(CN1C(=O)CSC1=O)Nc1ccc(N2CCOCC2)cc1	/	/	-0.5
9%	2.0	1.5	0.72	CCOc1ccc(N2C(=O)C(CC(=O)Nc3ccccc3)N(Cc3ccccn3)C2=S)cc1 (stereo not given)	1.9	+	3.8
4%	1.8	/	0.67	CCOC1=NC(=C(c2ccccc2)c2ccccc2)OC1=O	-1.1	i	-16
22%	0.6	5.5	0.71	O=C(O)c1cnn2c1NC(c1ccc(F)cc1)CC2C(F)(F)F (stereo not given)	/	/	-0.4
3%	3.5	8.3	0.72	Cc1cc(Cl)ccc1NC(=O)CCCN1C(=O)CCC1=O	/	/	0.4
4%	2.2	-4.9	0.73	CCN(CC)CCCNC1CCS(=O)(=O)C1 (stereo not given)	/	/	2.3
2%	-5.6	5.5	0.7	Cc1ccc(SCC(=O)OC(C)C(=O)N2CCc3ccccc32)cc1 (stereo not given)	-8.6	i	0.7
?	-2.7	-2.0	0.68	CC12CC(c3ccccc3O1)N(C(=O)c1ccco1)C(=S)N2c1ccc(F)cc1 (stereo not given)	/	/	2.5
-8%	1.8	/	0.7	C[C@H](N)C(=O)NC[C@H]1O[C@@H](n2cnc3c(N)ncnc32)[C@H](O)[C@@H]1O	-5.4	i	1.4
5%	-0.6	1.6	0.78	Cc1cc2cc(CNC(=O)c3cccs3)ccc2[nH]1	0.9	i	4.5
-6%	-3.1	1.8	0.73	CC(=O)c1ccc(OCC(=O)Nc2c(C)nn(-c3ccccc3)c2C)cc1	-9.2	i	4.0
/	-0.1	/	/	OCCN1CCN(c2cc(-c3ccc4ccccc4c3)nc3ccnn23)CC1	-1.5	i	/
4%	1.8	3.8	0.7	Cc1ccc(C)c(N2CCN(S(=O)(=O)c3c(C)noc3/C=C/N(C)C)CC2)c1	/	/	4.8
-6%	-0.4	5.3	0.82	CC(C)(C)c1ccc(C(=O)N2CCN(c3nc4ccccc4o3)CC2)cc1	5.8	i	6.6
/	0.7	0.7	0.67	O=C(Nc1ccccc1N1CCCC1)c1cccc(F)c1	2.4	/	4.3
7%	0.7	2.8	0.65	COCCNC(=O)C1CCN(S(=O)(=O)c2ccccc2)CC1	/	/	1.7
/	2.2	-3.1	0.69	COc1ccc(NC(=S)N2CCN(C(c3ccccc3)c3ccccc3)CC2)c(OC)c1	7.3	i	5.7
/	-1.7	/	/	c1cc(-c2cc3c(o2)CCCC3OCCN2CCOCC2)cs1 (stereo not given)	4.6	i	/
-1%	0.5	12	0.74	O=C1c2ccccc2C(=O)N1CCCCSc1nnnn1-c1ccccc1	/	/	-1.3
/	1.6	/	/	CCN(CC(=O)Nc1c(F)cccc1F)C(=O)c1ccc2c(c1)C(=O)N(c1ccccc1C)C2=O	-1.3	i	/

Structures listed so far marked active in FGF22 binding.
Vif A3G	HNF4A DNA FP	RanGTP-Imp inh	E coli growth	SMILES	AF4-AF9 inh	FGF22 binding	UCH37 inh
9%	2.0	1.5	0.72	CCOc1ccc(N2C(=O)C(CC(=O)Nc3ccccc3)N(Cc3ccccn3)C2=S)cc1 (stereo not given)	1.9	+	3.8

Following part
Vif A3G	HNF4A DNA FP	RanGTP-Imp inh	E coli growth	SMILES	AF4-AF9 inh	FGF22 binding	UCH37 inh
-2%	2.3	/	/	C[C@@H]1CN([C@@H](C)CO)C(=O)c2cc(Br)cnc2O[C@@H]1CN(C)C(=O)C1CCCCC1	-3.4&-2.2&-0.9	i	/
/	5.0	3.9	0.7	Cc1ccc(C(=O)NCCc2nnc3ccc(SCC(=O)NCc4ccc(F)cc4)nn23)cc1	-6.6	i	-2.9
-1%	2.2	60*	0.77	COC(=O)C1Sc2[nH]c(=O)sc2C2c3ccccc3OC(=O)C12 (stereo not given)	/	/	0.4
/	-3.1	/	/	CCc1ccc([C@H]2C[C@H]3[C@H]4C(=O)N(c5ccccc5)C(=O)[C@H]4CC(=O)[C@@H]3CN2S(=O)(=O)c2ccc(C)cc2)cc1	-35	i	/
/	2.2	-6.8	0.65	NC1=NC(=O)/C(=C/C=C/c2cccs2)S1	-0.6	i	7.9
